# Source: PubChem
# UCH37 DUB inh: inhibitors of human deubiquitinating enzyme UCH37. Q9Y5K5. purified proteasome/UCH37, Ub-AMC cleavage fluorescence. inhibition, % (test concentration not listed). hit rate 0.33% among 330,000;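 active = mean of two replicates above 20%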;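 note: 0% = compound-free wells with enzyme and 100% = wells lacking proteasome; stock transfer was 100 nL into about 20 µL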
#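 Assay system: Proteasome-bound UCH37. Buffer or medium: pH 7.4 Tris-HCl (50 mM) with ovalbumin, ATP-MgCl2, DTT. Incubation: 30 min preincubation with enzyme, 25 min cleavage at room temperature. Measured by: fluorescence, ex 355 nm, em 460 nm. Read-out basis: percent inhibition. Control set: wells without proteasome as full block, compound-free enzyme plus substrate as uninhibited.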
# ALR inh: human ALR oxidase inhibition via reduced H2O2; purified ALR, DTT oxidation, H2O2 HRP-luminol luminescence; AID 485317; inhibition, % (concentration not given with the values); hit rate 3.8% among 290,000;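 active = mean and each replicate at 75% or more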;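 note: stock transfer was 7.5 nL into about 7.5 µL; 0% = neutral wells and 100% = wells with inactivated enzyme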
# FGF22 binding: binders of recombinant human FGF22 by thermal shift. hit rate 1.5% among 340,000. AID 651658. Q9HCT0. calls only at 9.99 µM. SYPRO orange fluorescence; percent of sucrose octasulfate shift, DMSO zero;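 active = melting point raised past a set limit in the mean and every replicate; three in four hits are not shown here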
# LANA-H2B inh: blocks KSHV LANA binding to histone H2A/H2B. Q9QR71. cell-free LANA-H2A/H2B peptide, fluorescence polarization. inhibition, % (concentration not given with the values). hit rate 0.6% among 320,000; in the data active = inhibition mostly above about 10%, no sharp cut-off; inactive = mostly below about 6.7%;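 note: stock transfer was 7.5 nL into about 10 µL; 0% = median of vehicle wells and 100% = median of positive control wells; one replicate is shown; the record names a cut of 25% in any replicate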
# Target sequence (Q9QR71 whole entry, looked up): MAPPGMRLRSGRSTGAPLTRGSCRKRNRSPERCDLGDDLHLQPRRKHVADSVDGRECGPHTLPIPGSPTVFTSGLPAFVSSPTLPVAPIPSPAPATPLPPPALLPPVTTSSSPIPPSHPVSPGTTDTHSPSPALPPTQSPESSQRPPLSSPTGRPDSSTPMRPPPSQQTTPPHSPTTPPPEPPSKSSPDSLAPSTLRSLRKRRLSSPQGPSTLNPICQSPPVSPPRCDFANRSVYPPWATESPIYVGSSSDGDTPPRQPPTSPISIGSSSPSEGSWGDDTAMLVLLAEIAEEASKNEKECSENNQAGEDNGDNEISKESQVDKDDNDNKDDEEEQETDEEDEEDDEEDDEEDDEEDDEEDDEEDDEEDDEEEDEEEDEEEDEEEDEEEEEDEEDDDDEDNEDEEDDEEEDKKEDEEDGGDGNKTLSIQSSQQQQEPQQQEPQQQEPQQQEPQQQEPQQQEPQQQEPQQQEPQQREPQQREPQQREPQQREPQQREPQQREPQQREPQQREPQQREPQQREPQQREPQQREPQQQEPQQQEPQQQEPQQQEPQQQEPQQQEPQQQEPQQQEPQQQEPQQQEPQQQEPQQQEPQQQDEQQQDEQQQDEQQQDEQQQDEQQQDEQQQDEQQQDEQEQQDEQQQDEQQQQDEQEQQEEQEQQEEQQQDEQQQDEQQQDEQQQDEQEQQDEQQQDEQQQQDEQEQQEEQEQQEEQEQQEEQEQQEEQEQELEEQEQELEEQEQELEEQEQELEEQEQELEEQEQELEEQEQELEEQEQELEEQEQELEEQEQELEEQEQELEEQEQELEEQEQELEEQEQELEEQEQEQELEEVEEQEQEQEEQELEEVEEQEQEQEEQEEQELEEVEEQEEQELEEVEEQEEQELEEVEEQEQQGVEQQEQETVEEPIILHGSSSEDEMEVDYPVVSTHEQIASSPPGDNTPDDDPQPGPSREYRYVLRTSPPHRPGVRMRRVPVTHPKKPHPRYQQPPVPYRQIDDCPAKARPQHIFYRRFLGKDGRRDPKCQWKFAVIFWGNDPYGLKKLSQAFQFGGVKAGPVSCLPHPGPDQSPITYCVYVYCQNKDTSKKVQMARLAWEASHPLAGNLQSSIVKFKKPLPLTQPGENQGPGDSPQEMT
# E coli growth: E. coli growth inhibition; hit rate 0.21% among 330,000; OD600 absorbance (test concentration not listed); Escherichia coli growth, OD600, 23 h; hits give low values;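 active = OD600 absorbance below the run mean of sample wells minus 3.6 SD, in any replicate, cut at about 0.56 in these data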;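 note: stock transfer was 300 nL into about 60 µL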
# Beta2AR agonist: agonists of human beta-2 adrenergic receptor inducing internalization; hit rate 0.43% among 340,000; AID 504454; response, % (concentration not given with the values); P07550; Am2.2-beta2AR cells, FAP receptor internalization, flow cytometry; reference of the scale not given here;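 active = response above a set limit, near 3 SD of response in nonfluorescent compounds, cut at about 42% in these data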;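 note: stock transfer was 100 nL into about 11 µL; a reference agonist was the positive control; negative values mostly stem from fluorescent compounds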
# HNF4A DNA FP: change in binding of human HNF4 alpha to DNA; AID 1224865; activity change, % at 10 µM; HNF4a-FITC DNA binding, fluorescence polarization, 1 h; hit rate 0.3% among 360,000; P41235; in the data active = activity change above about 30%, passing the limit was not always enough;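 note: controls were the assay level and a saturating level of protein; the project sought stronger binding though the title names inhibitors; some compounds called inactive have numbers as strong as hits; positive values seem to mean higher polarization but the record does not say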
# Starred values were filed as active, the others as inactive; i = inactive; . = not tested or not shown.
# Results follow in this order: UCH37 DUB inh, ALR inh, FGF22 binding, LANA-H2B inh, E coli growth, Beta2AR agonist, HNF4A DNA FP
Oc1cccc(C=NNc2ccccn2)c1
  ., ., i, ., ., -5.3, -7.3
COc1ccc(CC2(CO)CCN(Cc3ccc(OC(F)(F)F)cc3)CC2)cc1
  2.5, -18.4, i, 0.4, 0.625, -0.2, -0.1
CCCCNC(=O)CNC(=O)c1cccs1
  4.4, -10.1, ., 0.1, 0.724, -2.6, -1.3
COc1ccc(OC)c(/C=C/C(=O)Nc2cccc(S(=O)(=O)N3CCCC3)c2)c1
  -386.6, -4.6, i, 7.0, 0.695, 7.0, 2.7
Cc1ccc(N2CC(C(=O)OCC(=O)NNC(=O)c3ccccc3)CC2=O)cc1 (centres undefined)
  1.3, 0.4, i, 1.5, 0.677, -1.0, 0.9
CC1CCCC(C)N1C(=O)CSc1nnc(NC(=O)Cc2cccs2)s1 (centres undefined)
  0.8, -11.4, ., 2.3, 0.708, -5.9, -3.1
C=C1C(=O)O[C@H]2[C@H]1[C@@H](O)CC(=C)[C@@H]1CC(=O)[C@@H](C)[C@H]21
  2.2, 26.1, ., 0.0, 0.662, 6.9, 1.6
CCc1nnc(NS(=O)(=O)c2ccc(NC(=S)NC(=O)c3ccc(F)cc3)cc2)s1
  3.6, 50.6, ., 5.0, 0.68, 0.9, 1.3
CCCCN(CC)CCCNC(=O)c1cn(CC(C)C)c(=O)c2c1c1ccccc1n2C
  -105.2, -3.3, i, 0.1, 0.713, 8.2, 1.1
O=C(CCS(=O)(=O)c1ccc(Br)cc1)NCc1cccs1
  ., -2.8, ., 2.0, 0.692, -1.2, -4.4
Cc1ccc(Cl)cc1NS(=O)(=O)c1c(C)[nH]c(=O)[nH]c1=O
  -0.2, 1.1, ., 0.9, 0.642, -0.4, 1.9
COc1ccc(OCCC(=O)N2CCN(C)CC2)cc1
  3.7, -5.1, i, -2.0, 0.717, 4.5, 10.1
COc1ccc2oc(C(=O)Nc3ccc(C)cn3)c(C)c2c1
  -20.8, -3.1, i, 0.3, 0.749, -2.3, -1.3
O=C(NC1CC1)c1cccc(NC(=O)c2cc(S(=O)(=O)N3CCOCC3)ccc2Cl)c1
  4.6, ., i, ., 0.656, 15.9, 0.1
O=C(NC1CCCCC1)N(CCO)Cc1cc2cc3c(cc2[nH]c1=O)OCCO3
  -157.6, 17.6, ., -1.1, 0.704, -2.9, 2.0
CC(=O)n1cc(CO)c2ccccc21
  4.6, -10.0, i, 5.4, 0.752, -10.8, 3.2
COCC(=O)Nc1nnc(SCC(=O)NCc2cccs2)s1
  0.9, 2.8, ., -0.5, 0.719, 3.8, 1.6
O=c1[nH]cnc2scc(-c3ccsc3)c12
  -2.4, -10.0, ., 0.6, 0.695, -2.6, 3.4
CNC(=O)C(=O)NCCCN1CCOCC1
  0.4, -2.7, i, -3.5, 0.678, 0.1, 1.4
COc1ccc2c(c1)C(C)CC(C)(C)N2C(=O)CSc1nc2ccccc2s1 (centres undefined)
  0.0, -6.1, ., -1.2, 0.732, 5.2, -1.5
O=C(Nc1ccc2c(c1)OCO2)C(c1ccc(Cl)cc1)N1CCN(C(=O)c2ccco2)CC1 (centres undefined)
  5.1, -6.5, ., -4.4, 0.718, -11.5, -1.8
CCNC(=O)CC1C(=O)N(c2ccc(F)cc2)C(=O)N1Cc1cccs1 (centres undefined)
  2.9, 0.4, i, -3.8, 0.709, 3.0, 0.8
CCn1c(=O)c(=O)n(CC)c2cc(S(=O)(=O)Nc3cccc(OC)c3)ccc21
  2.6, -6.6, ., 2.7, 0.627, -6.3, -0.8
CC1CCCN(C(=O)c2ccc(NS(=O)(=O)c3ccc4[nH]c(=O)[nH]c4c3)cc2)C1 (centres undefined)
  3.2, 3.1, i, 2.1, 0.685, -3.6, -1.7
Cc1cc(C)cc(-n2nnnc2SCC(=O)Nc2cccc(NC(=O)c3ccco3)c2)c1
  4.4, 7.4, ., -1.6, 0.732, -16.5, 2.6
CCN(CC)CCCN=Cc1c(O)n(-c2c(C)cccc2C)c(=O)c2ccccc12
  9.7, ., i, -0.4, 0.615, -3.2, 4.2
NC(=S)N/N=C/c1ccc(OC(=O)c2cccnc2)cc1
  ., ., i, 0.9, ., -7.0, -0.1
Cc1c(Cl)cccc1NC(=O)CCCn1cnc([N+](=O)[O-])n1
  2.0, ., i, ., 0.66, 2.8, -1.4
O=C(Nc1cccc(F)c1)NC1(C(=O)N2CCN3CCCC3C2)CCCCC1 (centres undefined)
  2.0, -1.2, ., 2.8, 0.753, 0.4, -7.5
C/C(=N/NC(=O)CCc1ccccc1)c1ccc2c(c1)OCO2
  ., -13.4, i, -2.2, ., -10.4, 2.7
CCN1CCN(c2nc(-c3ccccc3)c3ccccc3n2)CC1
  -254.9, -27.6, i, -1.8, 0.628, -7.9, -1.4
COc1ccc(CCn2nnnc2C(CC(C)C)N2CCC(C(N)=O)CC2)cc1OC (centres undefined)
  4.9, -1.9, ., 0.3, 0.691, -3.7, -5.0
CCOC(=O)/C=C/C(=O)Nc1cccc([N+](=O)[O-])c1
  7.9, ., ., -0.2, 0.701, 7.0, -0.8
COc1ccccc1C(=O)NCC(=O)Nc1ccc2c(c1)CCC2
  3.2, 0.1, i, 3.6, 0.693, -0.3, 2.7
O=S(=O)(/N=C(\Sc1ccccc1)c1ccccc1)c1ccc(Cl)cc1
  ., -1.5, ., 5.8, ., 13.3, 4.1
CCOc1ccc(C2N(c3cc(Cl)ccc3OC)C(=O)C3CCCN32)cc1OC (centres undefined)
  0.1, -3.8, i, 4.3, 0.702, -3.1, 2.6
Cc1cccc(C(=O)N[C@H](C(=O)Nc2nnc(C3CC3)s2)C(C)C)c1
  1.8, -5.1, ., 0.4, 0.64, 2.1, -0.3
CCNC(=O)CC1C(=O)N(c2ccc(F)cc2)C(=O)N1Cc1ccc(OC)cc1 (centres undefined)
  0.5, -3.1, i, -0.9, 0.621, 4.5, 0.0
COc1cccc(/C(O)=C/C(=O)C(=O)Nc2ccc(S(=O)(=O)NC(C)=O)cc2)c1
  12.4, ., i, 0.0, 0.704, -0.5, -0.6
CCOCCNC(=O)c1ccccc1C(=O)NCCOCC
  1.8, -2.9, ., -2.6, 0.609, 13.0, -4.2
Cc1ccc(S(=O)(=O)n2c(=O)oc3ccccc32)cc1
  5.3, -3.0, i, -3.9, 0.769, -2.7, -0.9
Cc1cc(C)c2nc(N3CCC(C(=O)NCCCN4CCCC4=O)CC3)sc2c1
  1.2, 4.9, i, 1.1, 0.703, 1.6, -1.6
Cc1ccccc1S(=O)(=O)Cc1ccc(C(=O)N2CCN(c3ncccn3)CC2)o1
  3.5, 5.4, ., -0.7, 0.683, -9.4, -0.9
CCCNC(=O)N1CCC(C(=O)c2ccc(F)cc2)CC1
  4.6, -1.6, ., -0.1, 0.704, -6.1, -3.2
COc1ccc(CNC(=O)c2cccnc2Sc2ccc(C)c(C)c2)cc1
  2.0, ., ., -2.6, 0.701, -4.5, -3.4
CN(c1ccc(C(=O)NCc2ccco2)cc1)S(C)(=O)=O
  1.3, -1.9, ., 2.9, 0.756, 3.9, 2.5
COc1cccc(C2CC(C(F)(F)F)n3nc(C(=O)NCc4cccnc4)cc3N2)c1 (centres undefined)
  5.9, -0.2, ., -1.8, 0.697, 1.6, 3.5
CC(C)NC(=O)N(C)C[C@H]1Oc2c(NS(=O)(=O)c3cccs3)cccc2C(=O)N([C@H](C)CO)C[C@@H]1C
  2.7, -0.5, i, -6.3, ., -3.0, 4.9
Cc1ccc(C)c(S(=O)(=O)NCCCN2CCOCC2)c1
  -4.0, ., i, 6.2, 0.633, 1.6, 2.1
O=C(CN1CCc2ccccc21)Nc1ccc2c(c1)OCCCO2
  6.7, 14.7, i, 1.9, 0.669, -6.2, 5.7
CC(C)(C)SCCNC(=O)CN(c1ccc(F)cc1)S(=O)(=O)c1ccccc1
  4.6, 0.0, i, 2.4, 0.671, 0.3, -0.4
CC(=O)N1CCC(=NNC(=O)c2cc3ccccc3cc2O)CC1
  -5.9, 43.8, i, 11.8, 0.692, -0.3, -1.3
Cc1sc2nc(SCC(=O)NCc3ccco3)[nH]c(=O)c2c1C
  4.3, 7.0, i, -4.0, 0.724, -12.0, 1.4
Cc1cc(C(=O)CSc2nc3ccccc3n2CCC#N)c(C)n1Cc1cccs1
  1.5, 34.4, ., 0.4, 0.7, -11.0, 0.0
Cc1ccc2ccc(C3C(=O)c4ccccc4C3=O)nc2c1
  1.7, 1.5, i, -3.9, 0.69, 35.8, -27.3
OC1CCCC1
  0.1, -0.8, i, -3.7, 0.654, 1.5, 1.3
Cc1cccc(OCC(O)Cn2c(NCc3cccnc3)nc3c2c(=O)[nH]c(=O)n3C)c1 (centres undefined)
  4.8, 14.5, ., -2.1, 0.76, 11.5, -0.1
Cn1c(=O)c2c(nc(SCC(=O)N3CCc4ccccc4C3)n2C)n(C)c1=O
  1.2, -2.2, i, -3.9, 0.696, -0.2, -3.0
Oc1ccc[n+](CC(O)c2ccccc2)c1 (centres undefined)
  0.2, ., i, 5.8, 0.698, -1.2, -4.2
COc1cc(C2CC(=O)c3cnc(N4CCN(Cc5ccccc5)CC4)nc3C2)cc(OC)c1OC (centres undefined)
  4.7, -4.1, ., -4.1, 0.744, 6.1, 0.5

# Additional records follow.
# Results follow in this order: UCH37 DUB inh, ALR inh, FGF22 binding, LANA-H2B inh, E coli growth, Beta2AR agonist, HNF4A DNA FP
Cc1ccc(N(CC(=O)NCc2ccccc2Cl)S(=O)(=O)c2cccs2)cc1
  4.4, -2.0, ., -1.8, 0.689, 0.1, 2.3
N#CC1=C2SCC(O)(c3ccccc3)N2C(=O)CC1c1ccccc1 (centres undefined)
  3.9, -4.6, ., 0.8, 0.748, 11.9, -1.2
CCNC(=S)N/N=C/c1c(C)nn(-c2cccc(Cl)c2)c1Cl
  ., -17.0, i, 1.8, ., 0.3, -0.2
CCOc1ccccc1Oc1cn[nH]c1-c1ccc(OCC(=O)NN)cc1O
  1.1, ., i, -2.5, 0.696, 13.5, 2.7
COCC(=O)Nc1nc2n(n1)C(c1ccc(Cl)cc1)CC(c1ccc(OC)cc1)N2 (centres undefined)
  -39.3, 0.6, ., -1.3, 0.696, -5.7, -6.3
CC1CC(C)CN(c2ccc(C(=O)OCC(=O)NC3CCCc4ccccc43)cc2[N+](=O)[O-])C1 (centres undefined)
  1.8, 4.4, ., -1.5, 0.774, -3.7, -0.7
COc1ccc(C2C3=C(Nc4ncnn42)c2ccccc2CCC3)cc1 (centres undefined)
  -19.5, 0.3, ., -5.3, 0.678, 19.9, 3.8
O=c1[nH]c(-c2ccccc2)c(-c2ccccc2)nc1[N+](=O)[O-]
  7.0, 8.9, i, -1.3, 0.699, 10.0, -2.3
O=c1[nH]c2ccc(F)cc2[nH]c1=O
  -12.0, -25.7, i, -2.2, 0.688, 8.3, -2.7
CCOC(=O)C1(Cc2cccc(Cl)c2)CCCN(C(=O)c2occc2C)C1 (centres undefined)
  1.4, -2.4, ., 0.4, 0.672, 6.7, 0.9
O=c1nc(SCc2ccc(Cl)cc2)nc(-c2ccccc2)[nH]1
  -0.3, -3.5, i, -2.2, 0.692, 5.5, -1.0
CC(C)(C)OC(=O)NCCOC(=O)c1[nH]cnc1C(=O)NCc1ccccc1
  -0.5, 4.3, i, 9.4, 0.719, -5.1, -0.2
CCn1c(SCC(=O)Nc2ccccc2)nnc1-c1ccc(S(=O)(=O)N2CCOCC2)cc1
  0.2, -5.1, ., -4.5, 0.706, -1.9, -2.3
COc1ccc(NC(=O)c2ccc3c(c2)NC(=O)CS3)cc1
  -1.4, -2.1, i, 4.0, 0.689, 2.6, -4.7
CCN(CC)C(=O)Oc1ccc(Br)c2ccccc12
  2.0, -10.1, ., -5.4, 0.704, 11.8, 1.1
CCOC(=O)c1c(C)oc2c1c(C=NCCC(=O)O)c(O)c1ccccc12
  16.8, 62.2, i, -1.4, 0.668, 2.6, 3.0
Cc1cc(/C=N/NC(=O)c2ccncc2)c(C)n1-c1cccc(C(F)(F)F)c1
  ., 26.3, i, -5.7, ., -0.7, 3.1
CC1(C)Oc2ccc3ccc(=O)oc3c2-c2cn[nH]c21
  3.4, -2.5, ., -2.5, 0.71, 7.1, -1.0

# A portion of the library; rates above refer to the full screens.
